High-throughput results as filed in PubChem BioAssay.
Vaccinia inh = Vaccinia orthopox stage-specific inhibition | Vaccinia-infected cells, mCherry/Venus stage reporter fluorescence; hits give low values; some inactives read as strong as hits | activity change (mCherry), % (no concentration beside the values) | actives 0.01% (n = 89,000) | AID 1053133;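 active means mCherry past -33% and 40 or more points under the early reporter, replicates agreeing; inconclusive means past -33% without that gap or agreement; tested in A549 cells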;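 further: scaled between vehicle wells and reference inhibitor wells; 23 nL library stock went into each well; one replicate is shown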
Vaccinia inh Venus = also measured in Vaccinia inh; calls as there; activity change (Venus), %; measured here: Venus reporter, other viral stage;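 negative = less Venus signal; first of two replicates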
An asterisk follows results filed as active; ? = inconclusive; / = no result given. A portion of the library; the hit share may differ from the screen's.

SMILES | Vaccinia inh | Vaccinia inh Venus
COc1ccc(S(=O)(=O)N2CC[C@@H]3[C@@H](CO)N(C)c4ccc(-c5ccc(F)cc5)cc4[C@@H]32)cc1 | ? | /
COc1cccc(NC(=O)N[C@H]2CC[C@@H](CC(=O)NCc3ccccn3)O[C@H]2CO)c1 | 0.6 | -10.0
COc1ccccc1C(=O)N1C[C@H]2[C@@H](c3ccccc31)[C@@H](CO)N2C(=O)Nc1ccccc1 | 12.7 | -1.1
C[C@@H]1CN([C@H](C)CO)C(=O)c2cccc(NC(=O)Nc3ccc4c(c3)OCO4)c2O[C@@H]1CN(C)S(=O)(=O)c1cn(C)cn1 | 7.5 | 11.5
COCC(=O)N1CCCCN2[C@H](C1)[C@@H](c1ccc(-c3ccc(OC)cc3)cc1)[C@@H]2CO | 23.7 | 2.3
COc1ccccc1NC(=O)N1CCCCN2[C@H](CO)[C@@H](c3ccc(-c4ccccc4)cc3)[C@@H]2C1 | ? | /
COc1ccccc1S(=O)(=O)N[C@@H]1CC[C@H](CC(=O)N2CCCCC2)O[C@@H]1CO | 7.2 | 8.0
C[C@@H]1CN([C@@H](C)CO)C(=O)c2c(c3ccccc3n2C)-c2ccccc2CO[C@H]1CN(C)S(=O)(=O)c1ccc(C(F)(F)F)cc1 | -35.0 | -16.3
CC(=O)N1[C@H](CO)[C@@H](c2ccccc2)C12CN(Cc1nccs1)C2 | -0.4 | -2.0
COC(=O)C[C@H]1CC[C@H]2[C@H](COc3ccc(NS(=O)(=O)c4ccccc4Cl)cc3C(=O)N2C)O1 | 7.3 | 14.1
COc1ccc2c3c(n(C)c2c1)[C@@H](CO)N(S(C)(=O)=O)CC31CN(C(=O)C2CCCC2)C1 | 16.8 | 11.6
O=C(CC1CC1)N1CC2(C1)[C@H](c1ccccc1)[C@H](CO)N2C(=O)c1ccccn1 | 9.9 | 0.9
C[C@H]1CN([C@@H](C)CO)S(=O)(=O)c2ccc(/C=C/c3ccccc3)cc2O[C@@H]1CN(C)C(=O)c1cccnc1 | -22.1 | -13.3
COc1ccc(CN2[C@H](CO)[C@@H]3c4ccccc4N(C(=O)CC(F)(F)F)C[C@@H]32)cc1 | 7.2 | 0.2
C[C@@H]1CN([C@H](C)CO)C(=O)c2cc(NS(=O)(=O)c3cn(C)cn3)ccc2O[C@@H](C)CCCCO[C@@H]1CN(C)C(=O)c1ccccc1 | 32.2 | 4.0
C[C@@H]1CN([C@@H](C)CO)C(=O)c2cccc(NC(=O)C3CC3)c2O[C@H]1CN(C)Cc1ccc(Cl)c(Cl)c1 | -29.2 | -17.0
C[C@@H]1CN([C@H](C)CO)C(=O)Cc2cc(NS(=O)(=O)c3ccc(Cl)cc3)ccc2O[C@@H]1CN(C)S(=O)(=O)c1ccccc1 | -4.8 | -7.3
COc1ccc2c3c(n(C)c2c1)[C@H](CO)N(C(=O)Nc1ccc(F)cc1)CC31CCN(C(=O)CC2CC2)CC1 | ? | /
COc1ccc(CN(C)C[C@H]2Oc3ccc(NC(=O)Nc4c(C)noc4C)cc3C(=O)N([C@@H](C)CO)C[C@@H]2C)cc1 | 6.9 | 4.2
COCC(=O)Nc1ccc2c(c1)[C@H]1C[C@@H](CC(=O)NCc3ccc4c(c3)OCO4)O[C@@H](CO)[C@H]1O2 | 22.7 | 23.3
C[C@H]1CN([C@@H](C)CO)C(=O)c2cc(Br)cnc2O[C@H]1CN(C)C(=O)c1cnccn1 | 6.0 | 4.0
COCC(=O)NC[C@H]1[C@H](c2ccccc2)[C@H](CO)N1C(C)=O | 16.6 | 22.6
CCS(=O)(=O)Nc1ccc2c(c1)C(=O)N(C)[C@H]1CC[C@H](CC(=O)NCc3ccccc3F)O[C@@H]1CO2 | -1.0 | 2.6
CCCN(C)C[C@H]1OCc2cnnn2CCCC(=O)N([C@H](C)CO)C[C@@H]1C | 1.5 | 10.5
COc1ccc(S(=O)(=O)Nc2cccc3c2O[C@H](CN(C)CC2CC2)[C@H](C)CN([C@@H](C)CO)C3=O)cc1 | 4.0 | 9.2

Next part (two carried over from the part before).
SMILES | Vaccinia inh | Vaccinia inh Venus
CCCN(C)C[C@H]1OCc2cnnn2CCCC(=O)N([C@H](C)CO)C[C@@H]1C | 1.5 | 10.5
COc1ccc(S(=O)(=O)Nc2cccc3c2O[C@H](CN(C)CC2CC2)[C@H](C)CN([C@@H](C)CO)C3=O)cc1 | 4.0 | 9.2
C[C@@H]1CCCCO[C@H](CN(C)C(=O)CCC(F)(F)F)[C@H](C)CN([C@@H](C)CO)C(=O)c2cc(NC(=O)Nc3ccccc3)ccc2O1 | -18.1 | -1.6
O=C(c1ccccc1F)N1C[C@H]2[C@@H](c3ccccc31)[C@H](CO)N2C(=O)c1ccccc1 | 8.6 | 14.6
O=C(N[C@H]1CC[C@H](CCn2cc(Cc3ccccc3)nn2)O[C@H]1CO)c1ccccn1 | 5.5 | 14.5
C[C@H]1CN([C@@H](C)CO)C(=O)c2cc(NC(=O)Cc3cn(C)c4ccccc34)ccc2O[C@@H]1CN(C)Cc1ccc(Oc2ccccc2)cc1 | -34.3 | -24.7
C[C@@H]1CCCCO[C@H](CN(C)Cc2ccc(C(=O)O)cc2)[C@H](C)CN([C@H](C)CO)C(=O)c2cc(NS(=O)(=O)c3cccs3)ccc2O1 | 19.9 | 14.5
C[C@@H]1CN([C@@H](C)CO)S(=O)(=O)c2ccc(C#CC3(O)CCCC3)cc2O[C@H]1CN(C)C | -1.3 | 1.4
Cc1noc(C)c1S(=O)(=O)N(C)C[C@@H]1Oc2ccc(NC(=O)Cn3cnnn3)cc2CC(=O)N([C@H](C)CO)C[C@@H]1C | -3.1 | 0.1
COc1ccccc1C#Cc1ccc2c(c1)O[C@H](CN(C)Cc1ccccc1)[C@@H](C)CN([C@H](C)CO)S2(=O)=O | 12.0 | 12.4
C[C@@H]1CN([C@@H](C)CO)S(=O)(=O)c2ccc(C3=CCCC3)cc2O[C@@H]1CN(C)C(=O)c1ccccn1 | 4.7 | 2.5
COCC(=O)N1CCCCN2[C@H](C1)[C@H](c1ccc(C#Cc3ccccc3)cc1)[C@@H]2CO | ? | /
C[C@@H]1CCCCO[C@H](CN(C)S(=O)(=O)c2ccc(F)cc2)[C@@H](C)CN([C@H](C)CO)C(=O)c2cc(NC(=O)c3ccccc3)ccc2O1 | -1.4 | -2.7
CC=Cc1ccc2n(c1=O)C[C@@H]1[C@@H](CO)[C@H](C(=O)NCCc3cn(C)cn3)N(C(=O)C3CCC3)[C@H]21 (mixture of isomers) | -6.1 | -2.2
COc1ccc(NC(=O)Nc2ccc3c(c2)C(=O)N([C@H](C)CO)C[C@@H](C)[C@@H](CN(C)C(=O)c2ccccc2)OCCCC[C@H](C)O3)cc1 | 17.2 | 7.8
C[C@H]1CN([C@@H](C)CO)C(=O)Cc2cc(NC(=O)c3ccncc3)ccc2O[C@H]1CN(C)Cc1ccc(Oc2ccccc2)cc1 | 9.8 | 16.3
CCCN1C[C@@H](C)[C@@H](OC)CN(C)C(=O)c2ccc(NC(=O)COC)cc2OC[C@H]1C | -14.1 | -9.4
C[C@@H]1CN([C@H](C)CO)C(=O)c2cccc(NC(=O)Nc3cccc4ccccc34)c2O[C@@H]1CN(C)Cc1ccncc1 | 1.3 | -0.7
C/C=C/c1ccc([C@@H]2[C@H](CO)N3C(=O)CN(S(=O)(=O)c4ccccc4)C[C@@H]23)cc1 | -7.6 | -1.2
COc1ccccc1-c1ccc2c(c1)O[C@@H](CN(C)C(=O)Nc1ccccc1)[C@@H](C)CN([C@H](C)CO)S2(=O)=O | -29.6 | -22.2
CO[C@H]1CN(C)C(=O)c2ccc(NC(C)=O)cc2OC[C@H](C)N(CC2CCCCC2)C[C@@H]1C | 1.8 | 9.0
COc1ccc(S(=O)(=O)N(C)C[C@@H]2OCCCC[C@H](C)Oc3ccc(NC(=O)Cc4ccccc4)cc3C(=O)N([C@@H](C)CO)C[C@H]2C)cc1 | 9.3 | 7.1
C[C@@H]1CN([C@@H](C)CO)C(=O)c2cc(NC(=O)Nc3ccc(F)cc3)ccc2O[C@@H]1CN(C)C(=O)Nc1ccc2c(c1)OCO2 | 20.5 | 20.8
C[C@@H]1CN([C@H](C)CO)C(=O)c2cc(NC(=O)NC3CCCCC3)ccc2O[C@@H](C)CCCCO[C@H]1CN(C)S(=O)(=O)c1ccc(F)cc1 | 5.4 | 0.3
CO[C@@H]1CN(C)C(=O)c2cc(NC(=O)Nc3ccccc3F)ccc2OC[C@H](C)N(C)C[C@@H]1C | -10.9 | -4.1
C[C@@H]1CN([C@H](C)CO)C(=O)c2c(c3ccccc3n2C)-c2ccccc2CO[C@H]1CN(C)S(=O)(=O)c1ccsc1 | ? | /
Cc1ccc(S(=O)(=O)N[C@@H]2CC[C@H](CCNC(=O)C3CCOCC3)O[C@H]2CO)cc1 | 21.6 | 6.2

Whole records as entered above.
C[C@@H]1CN([C@@H](C)CO)S(=O)(=O)c2ccc(C#CC3(O)CCCC3)cc2O[C@H]1CN(C)C as listed: Vaccinia inh: -1.3; Vaccinia inh Venus: 1.4
CO[C@H]1CN(C)C(=O)c2ccc(NC(C)=O)cc2OC[C@H](C)N(CC2CCCCC2)C[C@@H]1C as listed: Vaccinia inh: 1.8; Vaccinia inh Venus: 9.0
C[C@@H]1CCCCO[C@H](CN(C)S(=O)(=O)c2ccc(F)cc2)[C@@H](C)CN([C@H](C)CO)C(=O)c2cc(NC(=O)c3ccccc3)ccc2O1 as listed: Vaccinia inh: -1.4; Vaccinia inh Venus: -2.7

Further compounds follow:
SMILES | Vaccinia inh | Vaccinia inh Venus
CN(C)CCCNC(=O)C[C@H]1CC[C@@H]2[C@H](COc3ccc(NS(C)(=O)=O)cc3C(=O)N2C)O1 | 6.0 | 2.6
COc1ccc2c3c(n(C)c2c1)[C@H](CO)N(C(=O)Nc1ccc(F)cc1)CC31CN(CC2CCOCC2)C1 | -32.1 | -31.4
CC(C)NC(=O)N(C)C[C@@H]1OCCCC[C@@H](C)Oc2ccc(NS(=O)(=O)c3ccc(F)cc3)cc2C(=O)N([C@@H](C)CO)C[C@@H]1C | 16.7 | 7.4
CS(=O)(=O)N1[C@@H]2c3ccc(-c4ccccc4F)c(=O)n3C[C@@H]2[C@@H](CO)[C@@H]1C(=O)NCC1CC1 | 20.5 | 9.2
C[C@H]1CCCCO[C@H](CN(C)S(=O)(=O)c2cn(C)cn2)[C@@H](C)CN([C@@H](C)CO)C(=O)c2cc(NC(=O)c3ccccc3)ccc2O1 | 17.0 | 6.3
O=C(C[C@H]1CC[C@@H](NC(=O)CCN2CCCCC2)[C@H](CO)O1)Nc1ccccc1 | 4.0 | 7.3
CC=Cc1ccc2n(c1=O)C[C@@H]1[C@@H](CO)[C@H](C(=O)NCC(F)(F)F)[C@H]2N1C(=O)CC (mixture of isomers) | 0.0 | -0.7
O=C(C1CCCCC1)N1C[C@@H]2[C@H](c3ccccc31)[C@@H](CO)N2Cc1ccccc1Cl | -28.5 | -18.2
C[C@H]1CN([C@@H](C)CO)S(=O)(=O)c2ccc(/C=C/c3ccccc3)cc2O[C@H]1CN(C)C(=O)c1cccnc1 | -16.4 | -11.2
COc1ccc(C#Cc2ccc([C@H]3[C@@H](CO)N4CCCCN(C)C[C@H]34)cc2)cc1 | ? | /
C[C@H]1CN([C@@H](C)CO)C(=O)c2cc(C#CC3CCCC3)cnc2O[C@H]1CN(C)S(C)(=O)=O | -1.7 | -2.3
C[C@H]1CN([C@@H](C)CO)C(=O)c2cccc(NC(=O)c3cnccn3)c2O[C@H]1CN(C)Cc1ccc(C(=O)O)cc1 | 21.9 | 15.2
COc1cccc(C(=O)Nc2ccc3c(c2)OC[C@H](C)N(C(C)=O)C[C@@H](C)[C@H](OC)CN(C)C3=O)c1 | 5.9 | 10.8
O=C(Nc1ccc(F)cc1)N1C[C@@H]2[C@H](c3ccccc31)[C@H](CO)N2C(=O)Cc1ccccn1 | 6.6 | 8.2
C[C@@H](O)C#Cc1ccc([C@@H]2[C@H]3CN(C(=O)Nc4ccccc4)CCCCN3[C@H]2CO)cc1 | 12.8 | 7.7
C[C@H]1CCCCO[C@@H](CN(C)C)[C@@H](C)CN([C@@H](C)CO)C(=O)c2cc(NC(=O)C3CCCCC3)ccc2O1 | -5.5 | -3.0
C[C@@H]1CN([C@@H](C)CO)C(=O)c2cccc(NC(=O)Nc3ccc(C(F)(F)F)cc3)c2O[C@@H]1CN(C)Cc1ccc(Cl)c(Cl)c1 | ? | /
C[C@H](CO)N1C[C@H](C)[C@H](CN(C)Cc2ccncc2)Oc2ccc(NC(=O)Cn3cnnn3)cc2C1=O | -16.5 | -6.6
O=C(C[C@@H]1C=C[C@@H](NC(=O)C2CCOCC2)[C@H](CO)O1)Nc1ccc(-c2ccccc2)cc1 | -25.8 | -21.2
CCNC(=O)C[C@@H]1CC[C@@H]2[C@H](COc3ccc(NC(=O)c4cccs4)cc3C(=O)N2C)O1 | 11.6 | 14.4
CCC(=O)N[C@H]1CC[C@H](CC(=O)OC)O[C@@H]1CO | -2.0 | -7.3
C[C@H](CO)N1C[C@H](C)[C@@H](CN(C)Cc2ccc(C(F)(F)F)cc2)Oc2c(NC(=O)c3cnccn3)cccc2C1=O | -4.2 | -4.6
NCC[C@@H]1CC[C@@H](NC(=O)c2ccccc2F)[C@H](CO)O1 | 10.4 | 3.9
Cc1noc(C)c1NC(=O)N(C)C[C@H]1Oc2ccc(NC(=O)c3ccncc3)cc2C(=O)N([C@@H](C)CO)C[C@H]1C | 2.9 | -1.9
C[C@@H]1CN([C@H](C)CO)C(=O)c2cccc(NC(=O)C3CCOCC3)c2O[C@@H]1CN(C)S(=O)(=O)c1ccc(F)cc1 | 8.1 | 8.7
CCC(=O)Nc1ccc2c(c1)C(=O)N(C)[C@@H]1CC[C@H](CC(=O)NCc3ccccc3)O[C@@H]1CO2 | -1.9 | 3.4
C/C=C/c1ccc2c(c1)O[C@H](CN(C)C(=O)c1cccnc1)[C@H](C)CN([C@H](C)CO)S2(=O)=O | 10.6 | 5.2
O=C(Nc1ccccc1F)N[C@H]1CC[C@@H](CCNC(=O)C2CCCC2)O[C@H]1CO | -22.4 | 2.6
